PV pol inh = poliovirus RdRp elongation inhibitors, primary screen, biochemical, fluorescence polarization, total intensity; Genome polyprotein (Poliovirus type 1 (strain Mahoney)), P03300; poliovirus polymerase elongation; stronger effect = lower value; % elongation, % (compound at 16.7 µg/mL); actives 0.66% (n = 150,000); AID 588519, 2011; in the data active means % elongation below about 90%; further: some results filed as inactive read as strong as hits
Target sequence (P03300 1749-2209 limits assumed): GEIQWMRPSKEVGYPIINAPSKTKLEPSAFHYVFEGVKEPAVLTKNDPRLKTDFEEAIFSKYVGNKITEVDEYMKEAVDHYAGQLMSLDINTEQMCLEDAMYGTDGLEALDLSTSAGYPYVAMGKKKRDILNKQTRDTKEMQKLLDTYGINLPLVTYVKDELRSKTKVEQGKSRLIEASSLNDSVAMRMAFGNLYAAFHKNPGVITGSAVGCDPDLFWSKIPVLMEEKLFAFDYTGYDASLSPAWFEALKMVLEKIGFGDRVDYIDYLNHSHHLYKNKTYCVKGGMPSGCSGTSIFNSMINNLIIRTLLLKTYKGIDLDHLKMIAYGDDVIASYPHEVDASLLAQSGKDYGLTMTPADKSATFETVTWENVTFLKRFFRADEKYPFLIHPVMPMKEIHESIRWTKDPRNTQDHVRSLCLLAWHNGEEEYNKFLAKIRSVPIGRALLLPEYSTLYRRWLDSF
Mtb MbtI inh = MbtI salicylate synthase inhibitors, primary screen, biochemical, fluorescence intensity; actives 0.89% (n = 100,000); inhibition, %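 (about 17 µg/mL by stock and volumes)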; P9WFX0; purified MbtI enzyme, fluorescence intensity read-out;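 active means above 50% in both replicates, above 80% if mildly self-fluorescent; inactive means the rest, strongly fluorescent compounds included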;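 further: 0% = mean of negative and 100% = mean of positive controls; one replicate is shown; some compounds called inactive have numbers as strong as hits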
MenB inh = M. tuberculosis MenB inhibitors, primary screen, biochemical, absorbance; 1,4-dihydroxy-2-naphthoyl-CoA synthase (Mycobacterium tuberculosis (strain ATCC 25618 / …; MenB enzyme assay, absorbance read-out; some hits fall short of the stated cut; inhibition, %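 (about 12 µg/mL by stock and volumes)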; actives 0.43% (n = 100,000);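 active means mean of two replicates above 30%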;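 further: 0% = no compound and 100% = wells with inactive enzyme; the first replicate is given; strong numbers were not always called active; inactives centre near -10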
Target sequence (P9WNP5 whole entry, looked up): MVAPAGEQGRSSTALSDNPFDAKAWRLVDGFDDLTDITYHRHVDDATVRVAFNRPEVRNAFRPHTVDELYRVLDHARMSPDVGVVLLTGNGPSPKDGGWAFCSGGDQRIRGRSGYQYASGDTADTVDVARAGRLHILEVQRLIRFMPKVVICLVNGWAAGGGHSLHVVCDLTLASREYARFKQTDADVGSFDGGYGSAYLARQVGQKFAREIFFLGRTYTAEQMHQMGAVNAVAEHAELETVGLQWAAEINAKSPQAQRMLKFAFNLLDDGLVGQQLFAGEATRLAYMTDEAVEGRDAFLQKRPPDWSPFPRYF
PV pol inh intensity = further read-out of PV pol inh, marked with its call; % elongation; measured here: total intensity read-out; formula for this scale not given here;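 total fluorescence in place of polarization; lower means less elongation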
Numbers without * were called inactive; . = no result given.

SMILES | PV pol inh | PV pol inh intensity | Mtb MbtI inh | MenB inh
CSc1cccc(NC(=O)C2CCCN2S(=O)(=O)c2cccc3cccnc23)c1 (stereo not drawn) | 101 | 108 | -11 | -1
CC12CN3CC(C)(CN(C1)C3c1ccccc1)C2=O (stereo not drawn) | 104 | 99 | -6 | -57
CC1(C)CC(=O)C2=C(C1)N=C1c3ccccc3C(=O)C1C2c1cccc(Br)c1 (stereo not drawn) | 101 | 97 | 5 | -41
NS(=O)(=O)c1cccc(C(=O)Nc2ccc(F)cc2)c1 | 101 | 102 | -9 | 5
CC(C)N1CCN(c2ccc(OC[C@@H]3CO[C@@](Cn4cncn4)(c4ccc(Cl)cc4Cl)O3)cc2)CC1 | 99 | 102 | -10 | -10
O=C1CSC(=S)N1CCc1ccc(Cl)cc1 | 105 | 110 | -4 | -21
Cc1ccc(S(=O)(=O)CCC(=O)Nc2ccc3c(c2)nc2n3CCCCC2)cc1 | 126 | 145 | 0 | -13
C=CCNC(=O)C1CC(c2cc(OC)ccc2OC)=NO1 (stereo not drawn) | 102 | 106 | 2 | -4
O=C(CCCn1nc(-c2ccccc2)c2cc(Cl)ccc21)N1CCOCC1 | 103 | 103 | -40 | -31
C1=CCC(CN2CCN(CC3CC4C=CC3C4)CC2)CC1 (stereo not drawn) | 102 | 102 | -18 | 21
CC1=NN(c2ccccc2)C(=O)C1/C=C1\C(=O)NC(=O)N(c2ccccc2)C1=O (stereo not drawn) | 98 | 103 | -20 | -205
O=C(NCCc1ccccc1)c1c(O)c2cccc3c2n(c1=O)CC3 | 101 | 102 | -18 | 13
O=c1ccc(-c2ccc(Cl)cc2)n[nH]1 | 99 | 96 | 37 | 10
COC(=O)CCc1nc2ccccc2nc1OC | 99 | 101 | 116 | -2
Cc1cc(C)c2[nH]c(=O)c(CN(Cc3ccc(F)cc3)Cc3nnnn3CC3CCCO3)cc2c1 (stereo not drawn) | 103 | 103 | 10 | -14
O=C(NCc1ccccn1)C1CCCCC1 | 98 | 102 | -16 | -20
Cc1c(CCC(=O)O)c(=O)oc2cc3occ(-c4ccc(Br)cc4)c3cc12 | 103 | 102 | -91 | 2
CC1CCC(C(C)C)C(NCc2ccccc2)C1 (stereo not drawn) | 97 | 93 | -9 | -4
COC(=O)Cc1ccc2c3ccccc3n(C)c2c1 | 107 | 100 | 75 | -43
O=C1CC(c2ccc(S(=O)(=O)NCc3ccco3)cc2)CN1 (stereo not drawn) | 99 | 100 | -3 | 7
C=CCn1c(NC(=O)c2ccccc2)c(C(=O)OCC)sc1=S | 96 | 96 | 78* | -137
Cc1cccc(Nc2nc(-c3ccccc3)no2)c1 | 104 | 105 | -14 | -22
Cc1ccc(-c2nn(CC(=O)N(C)C)c(=O)c3ccccc23)cc1 | 102 | 107 | -10 | -17
COc1ccc(NC(=O)CN(C)C2CCCCC2)c(OC)c1 | 99 | 108 | 2 | 3
CCOC(=O)c1c(CN2CCCC2)n(C)c2cc(Br)c(OC)cc12 | 99 | 87 | . | -8
COc1cccc(NC(=O)CSc2ncc3c(n2)-c2ccccc2N(C)S3(=O)=O)c1 | 102 | 103 | 5 | -18
COc1ccc(NC(=O)c2ccoc2COc2ccc(C)cc2)cc1 | 106 | 102 | -5 | -28
O=C(c1cccc(NC2=NC3CS(=O)(=O)CC3S2)c1)N1CCN(C(=O)c2ccco2)CC1 (stereo not drawn) | 100 | 102 | 1 | 13
Cc1ccc(C2(C)NC(=O)N(CC(=O)C(C)(C)C)C2=O)cc1 (stereo not drawn) | 107 | 97 | -9 | -21
Cc1[nH]c2cccc(C(=O)O)c2c1C | 97 | 106 | 90 | 10
CCc1nn(C)c(N)c1C | 100 | 101 | -5 | 4
COc1ccc(NC(=O)c2ccc(C)c(I)c2)cc1OC | 102 | 108 | -1 | -11
CCS(=O)(=O)Nc1ccc(N2CCCCC2)cc1 | 99 | 98 | 10 | -8
O=C(NCC1CCCO1)c1ccc(N2CC3CC(C2)c2cccc(=O)n2C3)c(NS(=O)(=O)c2ccc(F)cc2)c1 (stereo not drawn) | 99 | 101 | 0 | 3
COc1ccc([C@H]2Sc3ccccc3N(CCN(C)C)C(=O)[C@H]2OC(C)=O)cc1 | 98 | 98 | -6 | .
CN(C)/C=C(\C#N)S(=O)(=O)c1ccccc1 | 99 | 98 | 27 | -34
CN(C(=O)COC(=O)c1cccnc1Cl)C1CCCCC1 | 103 | 102 | -4 | .
C1CCC(N2CCN(C3CCCC3)CC2)CC1 | 100 | 108 | . | 0
N#CCc1c(C#N)c(N)nc(N2CCc3ccccc32)c1C#N | 98 | 94 | 41 | -25
O=C(NC=Nc1cccnc1)C1COc2ccccc2O1 (stereo not drawn) | 103 | 98 | . | 9
CC1=C(c2ccc(C)cc2)S(=O)(=O)N(CC(=O)N2CCN(c3ccccn3)CC2)C1=O | 101 | 98 | -17 | -18
O=C(CCCSc1nc2ccccc2[nH]1)N1CCN(S(=O)(=O)Cc2ccccc2)CC1 | 104 | 105 | 8 | -17
C=CCn1c(-c2ccncc2)n[nH]c1=S | 100 | 94 | 70* | 8
CC(=O)OCC1C(COC(C)=O)C1(Cl)Cl (stereo not drawn) | 101 | 105 | -4 | .
CCN(CC)Cc1c(O)ccc2oc(C)c(C(=O)Nc3ccccc3C)c12 | 102 | 103 | -30 | 0
CNc1ccccc1C(=O)N/C(N)=N\c1nc(C)c2ccccc2n1 | 102 | 100 | 6 | 0
CC(C)CN(C(=O)c1ccc(=O)n(C)n1)c1nc2ccccc2s1 | 104 | 110 | 23 | -8
CCOC(=O)N1CCN(S(C)(=O)=O)CC1 | 104 | 102 | -4 | 9
O=C(CCc1nc(-c2ccccc2)no1)Nc1ccccc1 | 105 | 101 | -1 | 4
CCOC(=O)N1CCc2c(sc3c2C(=O)NC(c2ccccc2)N3)C1 (stereo not drawn) | 104 | 107 | 10 | -30

Going on with the list:
SMILES | PV pol inh | PV pol inh intensity | Mtb MbtI inh | MenB inh
CC(C)c1ccc(NC(=O)CN2C(=O)c3ccccc3Sc3ccc(C(=O)N4CCCC4)cc32)cc1 | 101 | 103 | -13 | -14
Cc1cc(=O)[nH]c(SCC(=O)Nc2c(C)n(C)n(-c3ccccc3)c2=O)n1 | 105 | 107 | -12 | 5
CCCC(=O)Nc1sc2c(c1C#N)CC(C)(C)NC2(C)C | 110 | 112 | . | -9
Cc1ccc(CN2CCN(N=Cc3ccc(Br)s3)CC2)c(C)c1 | 102 | 102 | -8 | -21
C1=C(N2CCOCC2)Cc2ccccc21 | 104 | 101 | 20 | -1
COc1ccc(/C(N)=N/OC(=O)COc2ccccc2C)cc1OC | 105 | 99 | -6 | -25
N=C1/C(=C\c2ccc(-c3cccc(C(=O)O)c3)o2)C(=O)N=C2SC(N3CCCCC3)=NN12 | 100 | 100 | 6 | -432
Cn1c(=O)cc(SCC(=O)NCCN2CCOCC2)c2ccc(Cl)cc21 | 101 | 102 | -8 | -16
CC(=O)NC1=NC(=O)/C(=C/c2ccc(-c3ccc4c(c3)COC4=O)o2)S1 | 95 | 119 | . | -25
C=CCNC(=O)c1ccc(CN2CCOCC2)cc1 | 101 | 101 | -27 | -26
CCOC(=O)NC(=S)Nc1ccc(C(C)(C)C)cc1 | 105 | 102 | -13 | -13
COc1ccc(CNC(=O)CNCc2ccco2)cc1OC | 93 | 97 | -1 | -33
O=C1NC(=O)C(=Cc2cn(CCOc3ccc4c(c3)OCO4)c3ccccc23)C(=O)N1 | 99 | 102 | 0 | -100
O=C(CN1C(=O)c2ccccc2C1=O)Oc1cccc2cccnc12 | 103 | 102 | -7 | -5
NCCOc1ccc(Cl)cc1 | 103 | 105 | . | 5
O=S(=O)(c1ccc2[nH]c3c(c2c1)CCCC3)N1CCCc2ccccc21 | 99 | 104 | 13 | -5
O=C(OC1CCOC1=O)c1ccc(-c2nc3ccccc3s2)s1 (stereo not drawn) | 102 | 97 | 104 | 9
COc1cc2c(c(O)c1OC)C(=O)C(OC)CCC2 (stereo not drawn) | 97 | 106 | 9 | -4
O=C(NCC1CCCO1)C1CCCN(C(=O)N2CCOc3ccccc32)C1 (stereo not drawn) | 99 | 101 | -8 | 10
O=C(NC1CCS(=O)(=O)C1)c1sc2ccccc2c1Cl (stereo not drawn) | 100 | 102 | 0 | 10
O=C(COC(=O)CSc1ncnc2sccc12)Nc1nnc(-c2ccccc2)o1 | 127 | 144 | 10 | -70
Cc1ccc(C2=C/C(=C/c3ccc(-c4cccc(C(=O)O)c4)o3)C(=O)O2)cc1 | 113 | 177 | 1 | -161
COc1cccc2c1c(NC(=O)Nc1ccc(F)cc1F)nn2C | 100 | 99 | 0 | -12
CNC(=O)C1CCN(c2nc3ccccc3n3cccc23)CC1 | 102 | 104 | -8 | 14
O=C(Nc1ccccc1)c1ccc(=O)[nH]n1 | 105 | 111 | -4 | -24
COc1ccc(S(=O)(=O)c2n[nH]n3c2nc(=O)c2ccccc23)cc1 | 100 | 102 | 11 | -12
Cc1cccc(COc2ccc3c(C)cc(=O)oc3c2)c1 | 105 | 109 | 60 | -31
COc1cc2c(cc1NS(=O)(=O)c1ccc(N3CCCC3=O)cc1)oc1ccccc12 | 104 | 101 | . | 0
N#CC(=Nc1cccnc1)C1=C(O)c2ccccc2C1=O | 98 | 100 | 31 | -12
C(=NN1CCN(C2c3ccccc3-c3ccccc32)CC1)c1ccco1 | 104 | 103 | 26 | -32
CC1(C)CN=C(NCc2cccnc2)S1 | 104 | 106 | -12 | -15
CNC(=O)Oc1c(Cl)cc(Cl)cc1Cl | 103 | 99 | 14 | -35
CCn1c(C(C)(C)C)nc2ccccc21 | 100 | 104 | -10 | -8
O=C(O)CCCc1cc2cc(Br)ccc2o1 | 109 | 108 | . | -8
CCCC(=O)N1CCN(c2ccc(NC(=O)c3cc(OC)c(OC)c(OC)c3)cc2Cl)CC1 | 102 | 103 | -17 | -15
COc1ccccc1/C=C1/SC(=O)N(CN2CC(C)OC(C)C2)C1=O (stereo not drawn) | 104 | 101 | 15 | -39
C=CCn1c(=N)n(CCOc2ccccc2Cl)c2ccccc21 | 102 | 103 | -5 | 0
CC(=O)N1c2ccccc2CC1C (stereo not drawn) | 101 | 105 | -7 | -18
O=C(O)CN(CC(=O)Nc1cccnc1)Cc1ccccc1 | 103 | 101 | -1 | 6
Cc1nnc(NC(=O)c2ccc(S(=O)(=O)N(CC(C)C)CC(C)C)cc2)o1 | 101 | 102 | 6 | -11

Another view of some results above.
SMILES,PV pol inh,PV pol inh intensity,Mtb MbtI inh,MenB inh
O=C(Nc1ccccc1)c1ccc(=O)[nH]n1,105,111,-4,-24
COc1ccc(S(=O)(=O)c2n[nH]n3c2nc(=O)c2ccccc23)cc1,100,102,11,-12
Cc1cccc(COc2ccc3c(C)cc(=O)oc3c2)c1,105,109,60,-31
COc1cc2c(cc1NS(=O)(=O)c1ccc(N3CCCC3=O)cc1)oc1ccccc12,104,101,.,0
N#CC(=Nc1cccnc1)C1=C(O)c2ccccc2C1=O,98,100,31,-12
C(=NN1CCN(C2c3ccccc3-c3ccccc32)CC1)c1ccco1,104,103,26,-32
CC1(C)CN=C(NCc2cccnc2)S1,104,106,-12,-15
CNC(=O)Oc1c(Cl)cc(Cl)cc1Cl,103,99,14,-35
CCn1c(C(C)(C)C)nc2ccccc21,100,104,-10,-8
O=C(O)CCCc1cc2cc(Br)ccc2o1,109,108,.,-8
CCCC(=O)N1CCN(c2ccc(NC(=O)c3cc(OC)c(OC)c(OC)c3)cc2Cl)CC1,102,103,-17,-15
COc1ccccc1/C=C1/SC(=O)N(CN2CC(C)OC(C)C2)C1=O (stereo not drawn),104,101,15,-39
C=CCn1c(=N)n(CCOc2ccccc2Cl)c2ccccc21,102,103,-5,0

Next part
SMILES | PV pol inh | PV pol inh intensity | Mtb MbtI inh | MenB inh
CCC(=O)N1CCc2ccccc21 | 101 | 105 | -2 | 4
Cc1cc(S(=O)(=O)NCc2c(N(C)C)cccc2N(C)C)c(Cl)cc1Cl | 107 | 110 | -12 | -1
O=C1c2ccccc2C(=O)N1c1nccs1 | 101 | 103 | . | -12
NC(=O)CSc1nnnn1C1CCCCC1 | 102 | 104 | -2 | 1
CC(C)Cn1c(-c2ccccc2)nc2ccccc21 | 103 | 103 | 44 | -27
O=C(CN1C(=O)C2CC=CCC2C1=O)NCC(F)(F)F (stereo not drawn) | 104 | 111 | -9 | 0
CCOc1cc(/C=C2/C(=O)ON=C2C)ccc1OC(=O)c1cccs1 | 103 | 102 | 3 | -10
CCCn1c(SCC(=O)N2c3ccccc3CC2C)nc2ccccc21 (stereo not drawn) | 108 | 107 | 2 | -3
O=C(COC(=O)c1ccc(CN2CCCC2=O)cc1)c1ccc2c(c1)OCCO2 | 100 | 103 | -10 | -8
Cc1nc(NC(=O)CSc2ccccc2)sc1-c1ccccc1 | 104 | 102 | 2 | .
Cc1cc(=O)[nH]c(N/N=C/c2ccc(OC(=O)c3cccnc3)cc2)n1 | 100 | 107 | -2 | -36
O=C(O)C(c1ccccc1)N1C(=O)/C(=C\c2ccco2)SC1=S (stereo not drawn) | 99 | 95 | 2 | -80
Cc1cc(C)nc(/N=C(/N)N(C)C2CCCCC2)n1 | 105 | 110 | -4 | -7
